Polio RdRp inh: poliovirus RNA polymerase inhibition; AID 588519; % elongation, % (compound at 16.7 µg/mL); P03300; actives 0.66% (n = 150,000); poliovirus polymerase elongation, fluorescence polarization; stronger effect = lower value; in the data active = % elongation below about 90%; note: some results filed as inactive read as strong as hits
MenB inh: blocks the Mycobacterium tuberculosis MenB enzyme | MenB enzyme assay, absorbance read-out; some hits fall short of the stated cut | inhibition, %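 (about 12 µg/mL by stock and volumes)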 | actives 0.43% (n = 100,000);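 active = mean of two replicates above 30%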;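 note: 0% = no compound and 100% = wells with inactive enzyme; the first replicate is given; strong numbers were not always called active; inactives centre near -10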
Target sequence (P9WNP5 whole entry, looked up): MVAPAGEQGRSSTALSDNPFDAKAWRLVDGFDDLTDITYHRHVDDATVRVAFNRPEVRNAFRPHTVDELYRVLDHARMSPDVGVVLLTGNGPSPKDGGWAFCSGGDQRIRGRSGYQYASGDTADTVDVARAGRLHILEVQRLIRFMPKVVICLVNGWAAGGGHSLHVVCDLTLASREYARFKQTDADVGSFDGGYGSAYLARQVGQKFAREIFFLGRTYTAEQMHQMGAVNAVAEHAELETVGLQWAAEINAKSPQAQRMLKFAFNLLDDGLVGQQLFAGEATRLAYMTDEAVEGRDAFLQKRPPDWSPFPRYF
MbtI inh: blocks the Mycobacterium tuberculosis siderophore enzyme MbtI | P9WFX0 | purified MbtI enzyme, fluorescence intensity read-out | inhibition, %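 (about 17 µg/mL by stock and volumes)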 | actives 0.89% (n = 100,000);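 active = above 50% in both replicates, above 80% if mildly self-fluorescent; inactive = the rest, strongly fluorescent compounds included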;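 note: 0% = mean of negative and 100% = mean of positive controls; one replicate is shown; some compounds called inactive have numbers as strong as hits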
Target sequence (P9WFX0 whole entry, looked up): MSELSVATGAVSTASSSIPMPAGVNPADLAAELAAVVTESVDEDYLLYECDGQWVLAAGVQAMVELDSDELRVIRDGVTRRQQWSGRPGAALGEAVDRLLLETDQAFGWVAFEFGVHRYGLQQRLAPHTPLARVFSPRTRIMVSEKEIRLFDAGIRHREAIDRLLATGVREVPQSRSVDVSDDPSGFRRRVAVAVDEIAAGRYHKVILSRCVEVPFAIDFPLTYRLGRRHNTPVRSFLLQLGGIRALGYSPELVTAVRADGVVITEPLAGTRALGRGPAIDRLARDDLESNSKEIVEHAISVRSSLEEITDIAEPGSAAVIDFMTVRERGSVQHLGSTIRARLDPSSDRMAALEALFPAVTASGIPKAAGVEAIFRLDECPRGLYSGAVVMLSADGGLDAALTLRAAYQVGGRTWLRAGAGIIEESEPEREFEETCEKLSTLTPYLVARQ
Polio RdRp inh intensity: further read-out of Polio RdRp inh, marked with its call; % elongation; measured here: total intensity read-out; formula for this scale not given here;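 total fluorescence in place of polarization; lower means less elongation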
* = called active by the depositor; i = inactive; x = not tested or not shown.

| mol | Polio RdRp inh | Polio RdRp inh intensity | MenB inh | MbtI inh |
| --- | --- | --- | --- | --- |
| COCCN=c1scc(-c2cccs2)n1/N=C/c1ccc(N2CCOCC2)cc1 | 102 | 104 | -52 | -8 |
| COc1ccc(/C=C/C(=O)Nc2ccccc2N2CCCCC2)cc1OC | 103 | 100 | x | -2 |
| CCN1CCCC1CNC(=O)CCCN1C(=O)CCn2nc(C)cc21 (stereo unspecified) | 100 | 103 | -9 | -19 |
| COC(=O)c1c(NC(=O)c2ccoc2C)sc2c1CCCCC2 | 101 | 104 | -5 | -61 |
| CC(Sc1nc(-c2ccccc2)cc(C(F)(F)F)n1)C(N)=O (stereo unspecified) | 105 | 105 | 29 | 59 |
| COc1ccc(-c2noc(N(C)CC(=O)N3CCN(c4ccccc4OC)CC3)n2)cc1 | 103 | 102 | -13 | 4 |
| CCCCCCCC1N[C@H](C(=O)O)CS1 (stereo partly specified) | 101 | 97 | 8 | -1 |
| CSc1ccc(Cl)c(C(=O)OCC(=O)N2CCc3ccccc3C2)c1 | 100 | 104 | x | 0 |
| Cc1[nH]c2ccccc2c1C(=O)CN1c2ccccc2CC1C (stereo unspecified) | 109 | 106 | -31 | -5 |
| Cn1cc(C(CC(=O)O)C(=O)O)c2ccccc21 (stereo unspecified) | 102 | 103 | -14 | -376 |
| Cc1cccc(C(=O)NCC(c2ccccc2)N(C)C)c1 (stereo unspecified) | 96 | 97 | -2 | -4 |
| Cc1cc(C)cc(NC(=O)[C@@H](NC(=O)c2ccco2)C(C)C)c1 | 105 | 95 | -27 | -6 |
| Cc1oc2c(F)c(F)c(F)c(F)c2c1S(=O)(=O)Nc1cccc(C(F)(F)F)c1 | 102 | 95 | -20 | 4 |
| O=C(CN(Cc1ccc2c(c1)OCO2)C(=O)CSc1nc2ccccc2o1)NC1CCCCC1 | 103 | 102 | 3 | -3 |
| COc1cc(S(C)=O)ccc1-c1nc2ncccc2[nH]1 (stereo unspecified) | 101 | 97 | -7 | i |
| CC1CN(S(=O)(=O)c2ccccc2)C(C)N1C(=O)N1CCOCC1 (stereo unspecified) | 102 | 104 | 13 | 8 |
| CC1CC(C)CN(S(=O)(=O)c2ccc(C(=O)NCc3ccco3)cc2)C1 (stereo unspecified) | 98 | 89 | -40 | -1 |
| N#Cc1sc2nc3ccccc3n2c1N | 104 | 110 | -17 | 4 |
| Cc1ccc(S(=O)(=O)/N=C(\c2ccccc2)N2CCCC2)cc1 | 102 | 106 | -2 | -11 |
| O=C(OCc1nnc(-c2ccccc2Br)o1)c1ccc2[nH]c3c(c2c1)CCCC3 | 103 | 112 | -19 | 1 |
| Cc1ccc2[nH]c3c(=O)n(CC(=O)Nc4cccnc4)ncc3c2c1 | 101 | 103 | 4 | 26 |
| COc1nc(C)c(/C=C/C(=O)N(C(=O)NC2CCCCC2)C2CCCCC2)c(OC)n1 | 101 | 100 | -5 | 52 |
| COc1ccc(N2CCN(c3cc(O)c4ccccc4c3O)CC2)cc1 | x | x | 13 | -34 |
| Cc1cccc(OCc2nnc(SC(C)C(=O)O)n2Cc2ccccc2)c1 (stereo unspecified) | 103 | 104 | 4 | -4 |
| CCCCC[C@H](O)/C=C/[C@@H]1[C@@H](C/C=C\CCCC(=O)O)[C@@H](O)C[C@H]1O | 101 | 104 | 3 | -18 |
| N#CC1=C2C=CC=CN2/C(=C\c2cn(-c3ccccc3)nc2-c2cccs2)C1=O | 95 | 105 | -22 | 1 |
| O=C(CCN1CCN(c2ccccc2)CC1)Nc1nccs1 | 104 | 109 | -1 | x |
| CCc1ccccc1Nc1nc(-c2c(C)nc3sccn23)cs1 | 101 | 101 | -5 | 49 |
| Cc1cc(C)n2nc(C(=O)N(C)CC(=O)Nc3ccc(Cl)c(C(F)(F)F)c3)nc2n1 | 101 | 103 | -6 | -6 |
| COc1cc2nc(C)[nH]c2cc1OC | 100 | 101 | 5 | -10 |
| Cc1ccc(S(=O)(=O)CCc2nc3ccccc3n2CCC#N)cc1 | 100 | 102 | 23 | 11 |
| CCOC(=O)c1ccsc1NC(=O)CSc1ccccc1 | 104 | 109 | -37 | -4 |
| O=C(NCCc1ccccn1)C1CC(=O)N(Cc2ccccc2Cl)C1 (stereo unspecified) | 101 | 105 | -24 | -8 |
| O=C(Sc1cccc2cccnc12)c1ccccc1Cl | 107 | 115 | x | 2 |
| CCC(CC)C(=O)NCc1ccccc1 | 101 | 103 | -15 | -19 |
| Cc1cccc(-n2ccnc2SCC(=O)NC2CCCCC2)c1 | 103 | 104 | -18 | -3 |
| Cc1cc(NC(c2cccnc2)c2ccc3cccnc3c2O)no1 (stereo unspecified) | 126 | 157 | -95 | -1 |
| CN(CC(=O)c1ccccc1Br)C1CCCCC1 | 102 | 99 | 11 | -3 |
| Cc1nn(-c2ccccc2)c2sc(C(=O)N3CCCCC3)cc12 | 103 | 105 | x | -2 |
| COc1ccc(NS(=O)(=O)c2cc3c(cc2Cl)NC(=O)CO3)c(OC)c1 | 100 | 101 | -1 | 1 |
| CN1CCC(=NNC(=O)CN(c2ccccc2)S(=O)(=O)c2ccccc2)CC1 | 100 | 103 | -11 | -14 |
| CCCNC(=O)CSc1n[nH]c(=S)s1 | 101 | 92 | -23 | 57* |
| CN1C(=O)C2(OCC(COc3ccc(Cl)cc3)O2)c2ccccc21 (stereo unspecified) | 100 | 102 | -15 | -4 |
| O=C(O)c1cc2ccc3cccc4ccc(c1)c2c34 | 103 | 107 | -5 | 106 |
| CC1=NN(c2ccc(C)c(C)c2)C(=O)/C1=C/c1ccc(-c2ccc3c(c2)C(=O)NC3=O)o1 | 102 | 102 | 6 | 5 |
| Cc1cccc(N2CCN(CCNC(=O)c3cc4c(s3)CS(=O)(=O)C4)CC2)c1C | 104 | 104 | -3 | 0 |
| O=C(O)c1ccc[nH]c1=S | 104 | 109 | -16 | 1 |
| Cc1ccc(C2=NN3C(=O)c4ccccc4C3C2)cc1 (stereo unspecified) | 105 | 105 | -10 | 1 |
| CCOc1ccc(C(C)(C)C)cc1S(=O)(=O)Nc1cccnc1 | 101 | 99 | -48 | -6 |
| Cc1onc(-c2ccccc2)c1C(=O)N=S(C)(C)=O | 104 | 106 | 3 | -1 |

Continuation:
| mol | Polio RdRp inh | Polio RdRp inh intensity | MenB inh | MbtI inh |
| --- | --- | --- | --- | --- |
| CCC(C)c1ccc(NC(=O)COC(=O)C2CCC2)cc1 (stereo unspecified) | 101 | 100 | x | -2 |
| CCOC(=O)c1cc(-c2ccccc2)sc1NC(=O)C(C)N1CCN(C(=O)c2ccco2)CC1 (stereo unspecified) | 102 | 96 | -20 | -9 |
| CCN(CC)S(=O)(=O)c1ccc(-c2ccc(/C=N/NC(=O)CNc3ccc(OC)cc3)o2)cc1 | 101 | 107 | -31 | -12 |
| CCOc1ccc(N2C(=O)C3C(C2=O)N2CCCN2C3c2ccc(F)cc2)cc1 (stereo unspecified) | 102 | 106 | -16 | -5 |
| O=C(/C=C/c1ccco1)N(Cc1ccccc1)c1ccccn1 | 102 | 106 | 16 | 12 |
| Cc1ccc(-n2c(SCCn3ccnc3)nnc2-c2ccc(Cl)cc2)cc1 | 104 | 106 | -36 | -12 |
| Cn1cccc1/C=C1\CCc2ccccc2C1=O | 104 | 107 | -235 | 11 |
| O=c1c2cnn(-c3ccccc3)c2ncn1/N=C/c1ccc(Cl)cc1 | 103 | 100 | -6 | -10 |
| COc1ccc2c3c([nH]c2c1)C(C)(C(=O)O)NCC3 (stereo unspecified) | 106 | 111 | -2 | 38 |
| Cc1nc2c(c(C)nn2C)c(C)c1CCC(=O)NCc1ccccc1 | 100 | 100 | -31 | 9 |
| CC1(C)CCC(C)(C)c2cc(-c3csc(CC#N)n3)ccc21 | 115 | 117 | -35 | 0 |
| CN(C)CCNC(=O)c1c(O)c2c(n(C3CC3)c1=O)CCCC2 | 99 | 103 | 7 | 74 |
| OC(CNc1ccccc1Cl)Cn1nnnc1-c1ccccc1 (stereo unspecified) | 103 | 100 | -27 | 0 |
| N#Cc1cc(C(=O)c2ccccc2O)cn2c1nc1ccccc12 | 43 | 243 | -38 | -6 |
| CCc1cc2c3c([nH]c2cc1S(=O)(=O)NC(C)CC)CCCC3=O (stereo unspecified) | 102 | 101 | -29 | -8 |
| O=C(CCc1nc(-c2ccc(Cl)cc2)no1)N1CCCC1 | 100 | 102 | -18 | 14 |
| CCc1ccc(NC(=O)CSC2=NC3C(=O)N(C)C(=O)N(C)C3N2C)cc1 (stereo unspecified) | 105 | 104 | -21 | -3 |
| C1CCN2C[C@@H]3C[C@H](CN4CCCC[C@@H]34)[C@H]2C1 | 101 | 102 | 0 | -11 |
| CCCNC(=O)c1cc2sc(Cl)cc2n1C | 101 | 104 | -12 | 5 |
| CCCC(=O)Nc1nnc(CCC)s1 | 102 | 102 | 4 | -8 |
| COc1ccc(OCCSc2cccc[n+]2[O-])cc1 | 107 | 108 | -28 | 23 |
| CC1CCCC(C)N1C(=O)Cn1cnc(NC(=O)c2cc(-c3ccc(F)cc3)no2)n1 (stereo unspecified) | 99 | 102 | 4 | -5 |
| Nc1nc(CN2CCOCC2)nc2ccccc12 | 105 | 98 | 9 | 11 |
| Cc1cc(C)c2cc(C(=O)Nc3ccc4c(c3)OCO4)[nH]c2c1 | 100 | 105 | -10 | 34 |
| CCOC(=O)C1=C(N)Oc2n[nH]c(C)c2C1c1cccs1 (stereo unspecified) | 109 | 109 | -46 | x |
| CCN(CC)c1n[nH]nc1-c1cccc(Cl)c1 | 104 | 107 | -5 | x |
| NC(=O)c1cc(-c2cccnc2)no1 | 102 | 101 | -16 | -4 |
| COc1ccc(S(=O)(=O)NC(CC(=O)N2CCC3(CC2)OCCO3)c2ccco2)cc1 (stereo unspecified) | 101 | 105 | -11 | -8 |
| COc1ccccc1OC(=O)NC(C)C | 105 | 98 | 7 | 0 |
| CCCN(C(=O)c1ccc(S(=O)(=O)N2CCCC2)cc1)C1CCS(=O)(=O)C1 (stereo unspecified) | 103 | 105 | -14 | -12 |
| COC(=O)C1CN(C(=O)c2ccc(C)cc2)c2ccccc2O1 (stereo unspecified) | 102 | 98 | 16 | 10 |
| O=C(N/N=C/c1ccc(O)c(O)c1O)c1ccccc1-n1cccc1 | 95 | 97 | 4 | 45 |
| COc1ccc(C2C(C#N)C(C#N)N3CCCN23)cc1 (stereo unspecified) | 100 | 102 | -15 | 26 |
| CCN1C(=S)NC2c3cc(C)ccc3OC13CCCC23 (stereo unspecified) | 100 | 104 | -36 | -1 |
| OC1CCCCC1Sc1nc2ccccc2s1 (stereo unspecified) | 101 | 100 | 0 | 2 |
| Cc1cc(C)n(-c2nc3ccccc3nc2N2CCCC2)n1 | 101 | 102 | -70 | 13 |
| O=C(NCCOc1nc(N2CCOCC2)nc(N2CCOCC2)n1)Nc1ccccc1 | 103 | 100 | -17 | 13 |
| Cc1cc(C(=O)OCC(=O)Nc2ccccc2C(=O)NC(C)c2ccccc2)no1 (stereo unspecified) | 103 | 106 | -10 | 2 |
| CC1CC(C)CN(C(=O)COC(=O)CCc2ccc(S(=O)(=O)N3CCOCC3)cc2)C1 (stereo unspecified) | 101 | 107 | -11 | -3 |
| COc1ccc(C2CC(c3ccccc3)=NN2C(=O)Cn2cnc3c2c(=O)n(C)c(=O)n3C)cc1 (stereo unspecified) | 104 | 98 | 9 | 13 |
| O=C(Cc1ccccc1O)c1ccccc1 | 101 | 100 | x | 14 |
| COc1cc2c(cc1OC)C(C)N(C(=O)NC1CC(=O)N(c3ccc4c(c3)OCCO4)C1)CC2 (stereo unspecified) | 105 | 96 | -31 | -3 |
| O=C(CSc1ccccc1O)N1CCOCC1 | 103 | 108 | -18 | x |
| O=C(CSCCOc1ccccc1F)Nc1ccnn1C1CCCC1 | 105 | 105 | -27 | 2 |
| CN(C)c1ccc(C(CNS(C)(=O)=O)N2CCCC2)cc1 (stereo unspecified) | 99 | 101 | -1 | 16 |
| COc1ccc(-c2n[nH]c(=S)n2/N=C/c2ccccc2Br)cc1OC | 100 | 102 | -45 | 44 |
| COc1ccc2oc(/C=C/N(C)C)c(C(=O)c3ccc(Br)cc3)c2c1 | 131 | 129 | -13 | x |
| CC(C)(C)C(=O)CSc1nnc2n(-c3ccccc3)c(=O)c3ccccc3n12 | 104 | 104 | -12 | 31 |
| CC(C)OC(=O)NCCN1C(=O)C2C3C=CC(C3)C2C1=O (stereo unspecified) | 102 | 103 | 1 | -4 |

Looked up one by one from above, two records:
| mol | Polio RdRp inh | Polio RdRp inh intensity | MenB inh | MbtI inh |
| --- | --- | --- | --- | --- |
| O=C(Sc1cccc2cccnc12)c1ccccc1Cl | 107 | 115 | x | 2 |
| O=C(CCN1CCN(c2ccccc2)CC1)Nc1nccs1 | 104 | 109 | -1 | x |

7 consecutive records already listed, for reference:
| mol | Polio RdRp inh | Polio RdRp inh intensity | MenB inh | MbtI inh |
| --- | --- | --- | --- | --- |
| O=C(CSc1ccccc1O)N1CCOCC1 | 103 | 108 | -18 | x |
| O=C(CSCCOc1ccccc1F)Nc1ccnn1C1CCCC1 | 105 | 105 | -27 | 2 |
| CN(C)c1ccc(C(CNS(C)(=O)=O)N2CCCC2)cc1 (stereo unspecified) | 99 | 101 | -1 | 16 |
| COc1ccc(-c2n[nH]c(=S)n2/N=C/c2ccccc2Br)cc1OC | 100 | 102 | -45 | 44 |
| COc1ccc2oc(/C=C/N(C)C)c(C(=O)c3ccc(Br)cc3)c2c1 | 131 | 129 | -13 | x |
| CC(C)(C)C(=O)CSc1nnc2n(-c3ccccc3)c(=O)c3ccccc3n12 | 104 | 104 | -12 | 31 |
| CC(C)OC(=O)NCCN1C(=O)C2C3C=CC(C3)C2C1=O (stereo unspecified) | 102 | 103 | 1 | -4 |
